KCNQ2 inh – KCNQ2 channel blockers in CHO-K1 cells – cell-based, FluxOR thallium flux, B-score, primary screen (AID 2156); 1.1% of 310,000 active; B-score at 10 µM; O88943; 20 min; hits give low values; only compounds with negative scores are shown here; some inactives read as strong as hits;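 active means fluorescence ratio B-score at most minus 3 library SDs, with starting brightness B-score within 2 library SDs, cut at about -5.5 in these data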
Target sequence (O88943 whole entry, looked up): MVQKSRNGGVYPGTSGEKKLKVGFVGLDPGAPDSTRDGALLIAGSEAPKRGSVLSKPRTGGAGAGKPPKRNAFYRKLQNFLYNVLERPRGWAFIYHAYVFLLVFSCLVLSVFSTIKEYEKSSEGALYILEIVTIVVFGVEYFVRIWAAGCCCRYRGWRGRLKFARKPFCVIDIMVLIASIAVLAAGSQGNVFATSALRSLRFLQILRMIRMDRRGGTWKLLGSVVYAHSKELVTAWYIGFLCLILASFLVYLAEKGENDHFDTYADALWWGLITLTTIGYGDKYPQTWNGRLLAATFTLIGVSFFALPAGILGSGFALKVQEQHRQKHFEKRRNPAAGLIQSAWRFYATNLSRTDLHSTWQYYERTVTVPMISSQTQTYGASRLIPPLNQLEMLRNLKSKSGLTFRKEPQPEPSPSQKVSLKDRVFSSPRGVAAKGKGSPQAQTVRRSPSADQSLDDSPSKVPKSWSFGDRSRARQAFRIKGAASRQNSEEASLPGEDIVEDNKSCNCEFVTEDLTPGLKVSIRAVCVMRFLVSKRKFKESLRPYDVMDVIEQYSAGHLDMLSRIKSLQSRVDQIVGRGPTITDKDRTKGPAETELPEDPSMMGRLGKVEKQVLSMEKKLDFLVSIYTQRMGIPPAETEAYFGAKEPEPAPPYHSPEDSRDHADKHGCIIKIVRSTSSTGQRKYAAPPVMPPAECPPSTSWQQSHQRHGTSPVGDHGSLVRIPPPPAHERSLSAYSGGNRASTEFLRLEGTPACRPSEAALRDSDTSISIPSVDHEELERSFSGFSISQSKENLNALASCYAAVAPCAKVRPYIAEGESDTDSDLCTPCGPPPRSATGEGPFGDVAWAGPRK
KCNQ2 inh baseline – second read-out of KCNQ2 inh, no call of its own (marks repeat the call); B-score; measured here: initial fluorescence intensity artifact check;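 brightness before thallium and not channel activity; 0 = typical well and far values either way flag optical interference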
Starred values were filed as active, the others as inactive; i = inactive.

SMILES	KCNQ2 inh	KCNQ2 inh baseline
O=C(CSc1ccccc1)N1CCc2ccccc21	i	0.81
CCOc1ccc(-n2c(SCC(=O)Nc3ccc(C(=O)O)cc3)nc3ccccc3c2=O)cc1	i	-1.7
O=C(CNC(c1ccccc1)c1ccccc1)Nc1ccccc1-c1ccccc1	-6.3*	-2.3*
COc1ccc(-c2nc3n(n2)C(c2ccncc2)C(C(N)=O)=C(C)N3)cc1 (stereo not given)	i	-1.4
CCOC(=O)N1CCN(C(=O)CCCCCn2c(=S)[nH]c3ccsc3c2=O)CC1	i	-1.1
Cc1ccccc1Cn1ccc(NC(=O)c2cnn3c2NC(c2ccccc2)CC3C(F)(F)F)n1 (stereo not given)	i	-0.68
CCOC(=O)c1ccc(N2C(=O)CC(N3CCOCC3)C2=O)cc1 (stereo not given)	i	2.1
c1ccc2c3c(cc(N4CCOCC4)c2c1)OC1(N2CCOCC2)CCCCC1O3 (stereo not given)	i	0.31
O=C(CCc1cccc(Cl)c1)NC1CCCN(Cc2ccccc2F)C1 (stereo not given)	i	-0.02
Cc1ccc(C2NCCS2)cc1 (stereo not given)	i	1.2
CCCCOC(=O)c1c(C)oc2ccc(NS(=O)(=O)c3ccc4c5c(cccc35)C(=O)N4)cc12	i	0.22
Cc1sc2ncnc(Sc3nnnn3-c3ccccc3)c2c1C	i	0.74

Three records picked at random from the list so far:
SMILES	KCNQ2 inh	KCNQ2 inh baseline
CCOC(=O)N1CCN(C(=O)CCCCCn2c(=S)[nH]c3ccsc3c2=O)CC1	i	-1.1
CCOC(=O)c1ccc(N2C(=O)CC(N3CCOCC3)C2=O)cc1 (stereo not given)	i	2.1
CCCCOC(=O)c1c(C)oc2ccc(NS(=O)(=O)c3ccc4c5c(cccc35)C(=O)N4)cc12	i	0.22

(list continues)
SMILES	KCNQ2 inh	KCNQ2 inh baseline
Cc1[nH]c2c(C)cccc2c(=O)c1CN1CCCCCC1	i	-1
C=CCn1c(SCC(=O)Nc2ccc(N3CCOCC3)cc2)nnc1-c1ccco1	i	0.52
COc1cc(OC)c(OC)cc1/C=N/Nc1nc2ccccc2[nH]1	i	0.51
CC1=C(C(=O)NCc2ccc(Cl)cc2)C2(CCC(C)CC2)OC1=O (stereo not given)	i	0.01
O=C(N/N=C/C(Br)=C/c1ccccc1)c1cccnc1	i	-0.7
COc1ccc(CCN(C(=O)COc2ccccc2)c2nc(-c3ccccc3)cs2)cc1OC	-7.7*	-0.63*
N#Cc1ccccc1NC(=O)CN1CCN(Cc2ccccc2)CC1	i	-0.6
COc1cc2ccccc2cc1C(=O)Nc1ccccc1C	i	0.67
CC1(OC(=O)c2cccs2)C(=O)C=C2C=C3CCCN3C=C2C1=O (stereo not given)	i	1.2
COC(=O)c1nc(-c2ccccc2)oc1N1CCOCC1	i	-0.02
CCOC(=O)c1c(S(=O)(=O)Nc2ccc(CN3CCC(C)CC3)cc2)c(C)n(C)c1C	i	-0.26
Cc1c[n+]([O-])n(-c2ccc(C(=O)O)cc2)n1	i	-0.29
O=C(N/N=C/c1ccc(F)cc1)c1cc[n+]([O-])cc1	i	1.1
Cc1cc(N2CCN(C)CC2)n2nc(-c3ccc(Cl)cc3)nc2n1	i	0.4
Cn1c(COc2ccc(Br)cc2)nnc1SC1CCc2ccccc2C1=O (stereo not given)	i	0.03
Cc1ccc(CC2C(=O)N(c3ccc(F)cc3)C(=O)C2C)cc1 (stereo not given)	i	0.12
COC(=O)c1nnn(-c2nonc2N)c1CSc1nc2ccccc2o1	i	0.63
Cc1nnc(SCC2=C(C(=O)O)N3C(=O)[C@@H](NC(=O)Cn4cnnn4)[C@H]3SC2)s1	i	-2
CC(C)OC(=O)C(C(=O)C(F)(F)F)c1cc(NS(=O)(=O)c2ccc3ccccc3c2)c2ccccc2c1O (stereo not given)	i	-0.19
c1ccc(COCCC2CO2)cc1 (stereo not given)	i	1.2
COc1ccc(CNC(=O)c2csc(Cc3ccc(Cl)cc3)n2)cc1	i	0.21
CCOC(=O)N1CCN(c2c(-c3ccccc3)c3cc(Cl)ccc3[nH]c2=O)CC1	i	-0.03
O=C(CSc1ccccc1)NC1CCCCCC1	i	-0.36
NCCCn1c(C(=O)c2cc(Cl)c(N)c(Cl)c2)c2ccc([N+](=O)[O-])cc2[n+]1[O-]	i	0.51
CCNC(=O)CSc1nc2cc([N+](=O)[O-])ccc2n1-c1cccc(C(F)(F)F)c1	i	0.01
O=C1c2ccccc2NC2(CCCCC2)N1N=C1CCCCC1	i	-0.56
O=C(O)c1ccccc1C(=O)NCCCCCCNC(=O)c1ccccc1C(=O)O	i	0.04
CCN(C(=O)c1ccc(C)c(Br)c1)c1ccccc1	i	-0.03
Cc1cnc(C(=O)OC(C)C(=O)Nc2ccc3c(c2)OCCO3)cn1 (stereo not given)	i	0.52
O=C(c1noc2c1CCCC2)N1CCc2c([nH]c3ccccc23)C1c1ccccn1 (stereo not given)	i	0.18
CCC/C=C(\CCC)C(NC(=O)c1ccc(C(F)(F)F)cc1)c1ccccc1 (stereo not given)	-6.6*	-0.99*
N#C/C(=C\c1cccn1-c1ccccc1)C(=O)NC1CCCCC1	i	-1
CCOc1ccc(N=c2oc3cc(O)ccc3cc2C(=O)NCC2CCCO2)cc1 (stereo not given)	i	0.16
N#C/C(C(=O)N1CCCCC1)=C1/N=C(NC(=O)c2ccc(F)cc2)c2ccccc21	i	1.2
O=C(NCC1CC1)C1(C(F)(F)F)CC(CCc2ccccc2)CCCO1 (stereo not given)	i	-0.53
COc1ccc(/C=C2\C(=O)ON=C2c2cccc([N+](=O)[O-])c2)cc1	i	1.1
COCCn1nnnc1CN(CCc1ccccc1)Cc1cc2cc(OC)ccc2[nH]c1=O	i	0.23
COc1ccc(O)c(/C=N/N2CCCCC2)c1	i	-0.17
COc1ccc(-c2nc(N)n(S(=O)(=O)c3ccc(C)cc3)n2)cc1	i	0.9
COc1ccc(OC)c(NC(=O)c2cc3oc4ccccc4c3cc2O)c1	i	-0.19
Cc1ccc(C(=O)CCC2CCCCC2=O)cc1 (stereo not given)	i	-0.37
Cc1c(NC(=O)CN2CCCC(C)C2)ccc2nsnc12 (stereo not given)	i	1.8
O=C(Nc1cccc(F)c1)c1cc(-c2ccco2)nc2ccccc12	i	-1.1
O=C(CCNc1cccc(Cl)c1)c1cccs1	i	-0.1
COC(=O)[C@]1(C)N[C@H](c2ccc(-c3ccc(Cl)c(Cl)c3)c(OC)c2)[C@@H]2C(=O)N(C)C(=O)[C@@H]21	i	-0.67
COc1ccc(NC(=O)NNC(=O)c2ccc3ccccc3c2)cc1OC	i	-0.06
CC(C)C(=O)c1cc2c(cc1NC(=O)c1ccccc1)OCCO2	i	2.4
COCc1ccc(C(=O)NC2CC(C)(C)Cc3c2cnn3-c2ccc(C)cc2)o1 (stereo not given)	i	-0.19
CC(=O)Nc1ccc(NC(=O)c2sc3nc4c(c(-c5ccc(C)cc5)c3c2N)CCC4)cc1	i	-1.6
O=C(NNS(=O)(=O)c1ccccc1)Nc1ccc(F)cc1	i	-0.94
C/C(=N/NC(=O)CN1CCN(Cc2ccccc2Cl)CC1)c1ccco1	i	-0.06
O=C(Nc1ccccc1Cl)c1sccc1-c1ccccc1	i	-0.13
O=C(NCc1nc2ccccc2[nH]1)c1ccc(S(=O)(=O)N2CCOCC2)cc1	i	-0.09
C=CCn1c(COc2cccc(C)c2)nnc1SCn1nnc2ccccc2c1=O	i	1.4
O=C(CNC(=O)c1ccccc1Br)N/N=C/c1ccc(O)cc1	i	1.1
CCOc1ccc(NC(=O)CN2C(=O)CCSc3ccc(S(=O)(=O)N4CCCC4)cc32)cc1	i	0.43
CCN(CC)CCN(C(=O)C1CCCCC1)c1nc2cc3c(cc2s1)OCO3	i	-1
O=C(OCC(=O)N1CCN(C(=O)c2ccco2)CC1)c1ccccc1	i	0.01
Cc1ccc2cc(C#N)c(NCCNC(=S)NCCCN3CCOCC3)nc2c1	i	0.54
CCCN(CC(=O)Nc1ccccc1C)CC(=O)Nc1ccc(Br)cc1F	i	-1.3

The results go on.
SMILES	KCNQ2 inh	KCNQ2 inh baseline
CC(C)c1nnc(SCC(=O)N2CCN(C(=O)c3ccco3)CC2)n1N	i	0.03
CC12CCC(=O)N1C(C(=O)N1CCN(S(=O)(=O)c3ccc(Br)cc3Cl)CC1)CS2 (stereo not given)	i	1.1
Cc1ccc(CN2[C@@H](CC3CCCCC3)COCCS2(=O)=O)cc1	i	-0.89
Cc1ccc(-c2noc(-c3ccccc3Br)n2)cc1	i	0.84
O=C(NCc1ccccc1Br)c1ccc2c(c1)OCCO2	i	1.3
Cc1nc(N2CCN(C(=O)c3ccco3)CC2)nc2c1C(=O)CC(C)C2 (stereo not given)	i	0.3
CN=c1sc2ccccc2n1CC(O)COc1ccccc1 (stereo not given)	i	-0.65
CCc1ccc(-c2csc(NC(=O)C3CC(=O)N(c4ccc5c(c4)OCCO5)C3)n2)cc1 (stereo not given)	i	1.7
CSCCC1NC(=O)NC1=O (stereo not given)	i	8.2
CCCCOC(=O)c1ccc(NC(=O)C(=O)CC(=O)c2ccc(OC)cc2)cc1	i	0.75
COc1ccc(Cl)cc1NC(=O)C(C)NC(c1ccccc1)c1ccccc1 (stereo not given)	i	1
COc1cc2c(cc1OC)CN(CC(=O)Nc1ccc(S(=O)(=O)N3CCCC3)cc1)CC2	i	0.27
COc1cccc2cc(C(=O)Nc3ccc(S(=O)(=O)NCC4CCCO4)cc3)c(=O)oc12 (stereo not given)	i	-0.14
Cc1cc(C)c(S(=O)(=O)n2c([N+](=O)[O-])cnc2C)c(C)c1	i	1.1
Cc1c(C=O)c2ccccn2c1C(=O)c1cccc([N+](=O)[O-])c1	i	1.1
CCCC(=O)Nc1nnc(CC(=O)OCC)s1	i	-1.4
CCN(CC)C(=S)Oc1c(Cl)cccc1Cl	i	0.68
CNC(=O)C1CCN(S(=O)(=O)c2c(C)noc2/C=C/c2cccc(OC)c2)CC1	i	1.1
Cc1ccc(/C=C/C(=O)O)cc1S(=O)(=O)Nc1ccccc1C(=O)O	i	1.4
O=C(c1ccc(S(=O)(=O)NCC2CCCO2)cc1)N1CCN(c2ccccc2F)CC1 (stereo not given)	i	-1.4
COc1cccc2sc(N(CCCN(C)C)C(=O)c3ccc(S(=O)(=O)N4CCc5ccccc5C4)cc3)nc12	i	-0.46
O=C(CCN1CCN(CC(=O)Nc2ccccc2Cl)CC1)Nc1ccccc1F	i	0.65
O=C(CN1CCN(c2ccc(F)cc2)CC1)Nc1ccccc1[N+](=O)[O-]	i	-0.08
O=C(C1CCCCC1)N1CCN(c2ncccn2)CC1	i	-0.85
O=C(COc1ccc(Cl)cc1)NCc1nnc(SCC(=O)Nc2ccccc2)o1	i	1.1
COc1ccc(S(=O)(=O)N(CC(=O)NN=C2CCN(C)CC2)c2cc(Cl)ccc2OC)cc1OC	i	0.23
Cc1ccc(S(=O)(=O)N2CCN(CC(=O)NC(=O)NCc3ccccc3)CC2)cc1C	i	3.7
CCOC(=O)c1[nH]c(C)c(C(=O)Nc2ccc3c(c2)CCC3)c1C	i	0.71
CCCCCN(C(=O)CCC(=O)OCC(=O)Nc1cccc(CC)c1)c1c(N)n(CCCC)c(=O)[nH]c1=O	i	-1.1
CCOC(=O)N1CCN(C(=O)CNC(=O)c2nn(-c3ccc(OC)c(Cl)c3)c(=O)c3ccccc23)CC1	i	0.94
Cc1c(NC(=O)COc2ccc(C(C)C)cc2)c(=O)n(-c2ccccc2)n1C	i	3.6
O=C(/C=C/c1ccc(Cl)cc1Cl)Nc1cccc(S(=O)(=O)NC2=NCCCCC2)c1	i	0.04
CN(C)CCOC(=O)C12CC3(C)CC(C)(CC(C)(C3)C1)C2	i	1.4
O=C(CN1CCN(Cc2cccc(F)c2)CC1)NCc1ccccc1	i	1.6
COc1ccc(C2c3c(oc4ccc(Cl)cc4c3=O)C(=O)N2Cc2ccco2)cc1OC (stereo not given)	i	1.8
O=C(Cn1cc(C(=O)c2cccs2)c2ccccc21)NCC1CCCO1 (stereo not given)	i	-2.6
C=CCn1c(NCc2ccccc2)nc2ccccc21	i	-0.91
Cc1nnc(SC(C)C(=O)Nc2sc3c(c2C#N)CCCC3)[nH]c1=O (stereo not given)	i	2.8
O=C(CSc1nnc2ccc(-c3cccnc3)nn12)Nc1ccc(F)cc1	i	-0.03
Fc1ccc(OCc2cc(-c3ccccc3)no2)cc1	i	2.1
CSC(C(=O)c1cc2ccccc2o1)c1ccccc1 (stereo not given)	i	0.74
CCOC(=O)c1ccc(NS(=O)(=O)c2ccc3c(c2)oc(=O)n3C)cc1	i	1.8
O=C(NC(=C(Cl)Cl)S(=O)(=O)c1ccc(Cl)cc1)c1ccccc1	i	0.55
CN(CC(=O)NCc1ccncc1)S(=O)(=O)c1cc(Cl)ccc1Cl	i	-1.6
O=C(c1cccc(Br)c1)N1CCN(c2ccc(N3CCOCC3)nn2)CC1	i	1.9

Grouped by structure, the compounds so far containing an aryl thioether with sulfur outside any ring (14)
SMILES	KCNQ2 inh	KCNQ2 inh baseline
O=C(CSc1ccccc1)N1CCc2ccccc21	i	0.81
CCOc1ccc(-n2c(SCC(=O)Nc3ccc(C(=O)O)cc3)nc3ccccc3c2=O)cc1	i	-1.7
Cc1sc2ncnc(Sc3nnnn3-c3ccccc3)c2c1C	i	0.74
C=CCn1c(SCC(=O)Nc2ccc(N3CCOCC3)cc2)nnc1-c1ccco1	i	0.52
Cn1c(COc2ccc(Br)cc2)nnc1SC1CCc2ccccc2C1=O (stereo not given)	i	0.03
COC(=O)c1nnn(-c2nonc2N)c1CSc1nc2ccccc2o1	i	0.63
Cc1nnc(SCC2=C(C(=O)O)N3C(=O)[C@@H](NC(=O)Cn4cnnn4)[C@H]3SC2)s1	i	-2
O=C(CSc1ccccc1)NC1CCCCCC1	i	-0.36
CCNC(=O)CSc1nc2cc([N+](=O)[O-])ccc2n1-c1cccc(C(F)(F)F)c1	i	0.01
C=CCn1c(COc2cccc(C)c2)nnc1SCn1nnc2ccccc2c1=O	i	1.4
CC(C)c1nnc(SCC(=O)N2CCN(C(=O)c3ccco3)CC2)n1N	i	0.03
O=C(COc1ccc(Cl)cc1)NCc1nnc(SCC(=O)Nc2ccccc2)o1	i	1.1
Cc1nnc(SC(C)C(=O)Nc2sc3c(c2C#N)CCCC3)[nH]c1=O (stereo not given)	i	2.8
O=C(CSc1nnc2ccc(-c3cccnc3)nn12)Nc1ccc(F)cc1	i	-0.03

These rows are one share of the data, so the mix of outcomes need not match the whole.
